Screening data: PubChem BioAssay, Broad Institute
A1 apoptosis 2 = blocks A1, raising caspase activity | caspase activation, % (no concentration beside the values) | MEF A1-2A-BIM cells, caspase-Glo luminescence, 3 h; percent of clofoctol response, DMSO zero | 24,000 tested, under 10 active; in the data active = caspase activation above about 5.9%;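 also: wells of about 30 µL received 50 nL stock; the first replicate is given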
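Test system – A1-2A-BIM-expressing MEF cells · Input – 2500 cells/well · Medium – RPMI-1640 growth medium with 10% FBS · Compound dosing – 50 nL pinned compound · Timing – 3 h compound exposure at 37 °C · Technique – Caspase-Glo luminescence (DEVD substrate) · Evaluation – Caspase-3/7 activity from luminescence increase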
* = called active by the depositor.

Preview (4 entries):
SMILES	A1 apoptosis 2
CC1(CCO)CC(C)(CCc2ccccc2)OO1 (stereo not drawn)	0.0
Cc1ccc(OC(=O)N(C)C[C@H]2OCc3cnnn3CCCC(=O)N([C@@H](C)CO)C[C@H]2C)cc1	0.4
Cc1ccc(OC(=O)N(C)C[C@H]2OCc3cnnn3CCCC(=O)N([C@H](C)CO)C[C@H]2C)cc1	0.4
COc1ccc(OC(=O)N(C)C[C@H]2OCc3cnnn3CCCC(=O)N([C@H](C)CO)C[C@@H]2C)cc1	0.3

Results, previewed entries included:
SMILES	A1 apoptosis 2
CC1(CCO)CC(C)(CCc2ccccc2)OO1 (stereo not drawn)	0.0
Cc1ccc(OC(=O)N(C)C[C@H]2OCc3cnnn3CCCC(=O)N([C@@H](C)CO)C[C@H]2C)cc1	0.4
Cc1ccc(OC(=O)N(C)C[C@H]2OCc3cnnn3CCCC(=O)N([C@H](C)CO)C[C@H]2C)cc1	0.4
COc1ccc(OC(=O)N(C)C[C@H]2OCc3cnnn3CCCC(=O)N([C@H](C)CO)C[C@@H]2C)cc1	0.3
C[C@@H]1CN([C@@H](C)CO)C(=O)CCCn2nncc2CO[C@H]1CN(C)C(=O)Oc1cccc2ccccc12	0.0
CCN1C[C@]2(COC)CCC(OC)[C@@]34C5C[C@]6(O)[C@H](OC(=O)c7ccc(OC)cc7)C5[C@@](OC(C)=O)(C[C@H]6OC)[C@@H]([C@H](OC)C23)[C@@H]14 (stereo partly drawn)	-1.3
C[C@@H]1CN([C@H](C)CO)C(=O)CCCn2nncc2CO[C@@H]1CN(C)C(=O)Oc1cccc2ccccc12	0.9
Cc1ccc(OC(=O)N(C)C[C@@H]2OCc3cnnn3CCCC(=O)N([C@@H](C)CO)C[C@H]2C)cc1	1.2
CC(C)(C)ONC(=O)CN=[N+]=[N-]	0.0
C[C@H](CO)N1C[C@H](C)[C@@H](CN(C)C(=O)Oc2ccccc2)OCc2cnnn2CCCC1=O	0.9
C[C@@H]1CN([C@H](C)CO)C(=O)CCCn2nncc2CO[C@H]1CN(C)C(=O)Oc1cccc2ccccc12	1.7
C=CCN1C(=S)N[C@@H]2c3ccccc3O[C@@]1(C)[C@@H]2C(=O)OCC	-0.5
C[C@]12CC[C@H]3[C@@H](CCC4=CC(=O)CC[C@@]43C)[C@@H]1CC[C@H]2O	-0.6

As a working copy, part of the list above.
SMILES	A1 apoptosis 2
C=CCN1C(=S)N[C@@H]2c3ccccc3O[C@@]1(C)[C@@H]2C(=O)OCC	-0.5
C[C@]12CC[C@H]3[C@@H](CCC4=CC(=O)CC[C@@]43C)[C@@H]1CC[C@H]2O	-0.6

Not all compounds are listed, so the mix of outcomes need not match the whole.
